Compound activity deposited in PubChem by National Center for Advancing Translational Sciences (NCATS).
miR-21 reporter = raises the signal of a miR-21 reporter; 340,000 tested, under 10 active; Potency, µM (titrated, usually from 38.3 µM), for inactives: at the top dose reporter change, positive = more light; HeLa miR-21 FLuc reporter, luciferase, 48 h; active = well fitted rising curve with a large enough effect; inconclusive = small, poorly fitted or top-dose-only effect; inactive = no such curve, though single readings can be large or run the other way;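 also: % of control where 0% means no effect; miR-21 action dims this reporter so a rising signal means less miR-21 action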
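Luminescence from a firefly luciferase reporter carrying a miR-21 binding site downstream, stably expressed under a CMV promoter in HeLa cells that make miR-21 endogenously, reports miRNA modulation after 48 h compound exposure up to approximately 40uM final.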
GLA inh pH 4.5 = inhibitors of human alpha-galactosidase A at pH 4.5; P06280; purified enzyme, 4-MU-alpha-Gal fluorescence, pH 4.5; activity change, negative = inhibition, % at 105 µM; 230,000 tested, under 10 active; inconclusive = small, poorly fitted or top-dose-only inhibition, or a rising curve; inactive = flat fitted curve, though single readings scatter; no compound was filed as active;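 also: 0% = full activity with enzyme and -100% = basal without enzyme; dose as in the result columns while the protocol names 77 µM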
Target sequence (P06280 whole entry, looked up): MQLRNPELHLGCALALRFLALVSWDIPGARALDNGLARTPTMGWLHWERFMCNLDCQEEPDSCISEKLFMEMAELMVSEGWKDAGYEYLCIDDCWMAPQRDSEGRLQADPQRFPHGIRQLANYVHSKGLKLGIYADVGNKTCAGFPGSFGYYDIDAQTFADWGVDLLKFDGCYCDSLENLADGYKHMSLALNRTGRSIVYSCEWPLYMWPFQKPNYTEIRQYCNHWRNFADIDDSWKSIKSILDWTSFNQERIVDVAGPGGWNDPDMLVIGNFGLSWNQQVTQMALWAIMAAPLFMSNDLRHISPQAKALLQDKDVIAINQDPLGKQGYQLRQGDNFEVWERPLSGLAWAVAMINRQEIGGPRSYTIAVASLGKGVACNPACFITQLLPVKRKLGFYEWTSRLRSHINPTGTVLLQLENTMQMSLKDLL
Rango-impB inh = prevents formation of the Rango-importin beta complex; Rango CFP/YFP FRET sensor + importin beta, 45 min; 340,000 tested, 0.031% active; AID 540263; Potency, µM (doses to about 92.2 µM), inactives show at the top dose inhibition of complex formation; Q14974; active = rising FRET ratio curve, often small or poorly fitted; inconclusive = mostly compound fluorescence or quenching in the first reads; inactive = flat curves in all reads;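 also: potency is read from the fitted curve at half-maximal effect; 0% = DMSO wells and 100% = buffer wells lacking importin beta; nearly all actives have a fitted effect of over 15% in size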
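Inhibition scored from the CFP 486 nm/YFP 530 nm FRET ratio 45 min after adding 0.125 microM importin beta to 50 nM Rango biosensor preincubated 5 min with compound (room temperature, PBS with DTT, Tween-20, BSA). No-importin wells as positive control.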
Rango release inh = prevents RanGTP from dissociating the Rango-importin beta complex | O95149+P62826 | Biochemical FRET Rango-importin beta, RanGTP-induced dissociation | Potency, µM (top dose mostly 46.1 µM), inactives show at the top dose activity change, negative = inhibition | 340,000 tested, 0.071% active | AID 540253; active means falling FRET ratio curve, often poorly fitted, with flat reads before Ran was added; inconclusive means other falling curves, or compound fluorescence or quenching; inactive means flat or rising ratio curve;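 also: potency is read from the fitted curve at half-maximal effect; % of control where 0% means no effect; nearly all actives have a fitted effect of over 45% in size; -100% = wells without RanGTP and RCC1; the record marks most hits as doubtful in a second field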
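Recombinant Rango FRET biosensor (EYFP–snurportin 1 IBB–cerulean CFP10) at 0.1 uM premixed with 0.25 uM importin beta in PBS, 1 mM DTT, 0.02% Tween-20, 0.1% BSA. Compound added 5 min; RanGTP-RCC1 (0.6 uM Ran, 2 mM GTP, 0.2 uM RCC1) then triggers release, read at 45 min.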
Starred values were filed as active, the others as inactive; ? = inconclusive; / = no result given. Some of the compounds tested; count on the stated rates, not on these rows.

SMILES	miR-21 reporter	GLA inh pH 4.5	Rango-impB inh	Rango release inh
COc1cccc(CCc2nnc(CCC(=O)N3CCCC3c3nccs3)o2)c1 (stereo not given)	0%	-6	?	-13%
CCOC(=O)c1[nH]c2ccccc2c1N=C(C)N(CC)CC	0%	0	-0.2%	-9%
Cc1cccc2c1N(CCOc1ccccc1)C(=O)C2=O	-1%	-15	4.7%	11%
Cc1cc(C)c(NC(=O)c2ccc3c(c2)NC(=O)C(C)S3)c(C)c1 (stereo not given)	/	/	0.1%	-13%
O=C(CCc1nc2ccccc2[nH]1)N1CCN(C(=O)c2ccco2)CC1	-10%	6	-1.9%	-23%
O=c1[nH]c(=O)n(Cc2ccco2)c2c1C(C(F)(F)F)(C(F)(F)F)N=C(c1ccc(F)cc1)N2	?	5	-0.2%	-15%
COc1ccc(/C=N/Nc2ccc(C(=O)O)cc2)c(OC)c1OC	-51%	/	1.1%	0%
O=C(NCc1ccccc1Cl)c1ccc2c(c1)SC1=NS(=O)(=O)CCN12	-14%	6	0.3%	-2%
O=C(NCCCN1CCOCC1)c1ccc(Sc2ccc(Br)cc2)c([N+](=O)[O-])c1	-4%	6	-4.9%	10%
O=C(CSc1ncnc2nc[nH]c12)NCCc1ccccc1	-5%	0	-2.8%	-12%
Cc1ccc(CNC(=O)CCNS(=O)(=O)c2ccc3c(c2)c(=O)n(C)c(=O)n3C)cc1	3%	1	0.1%	-10%
O=C(CCN1C(=O)S/C(=C\c2ccc(Cl)cc2)C1=O)Nc1ccc(C(=O)O)cc1	-5%	/	-2.1%	9%
O=C(CSc1n[nH]c(-c2ccccc2O)n1)NC1CCCCC1	8%	/	-0.2%	16%
COc1ccc(C2c3ccc4ccccc4c3Oc3ncn(Cc4ccco4)c(=N)c32)cc1OC (stereo not given)	18%	3	-0.2%	-10%
Cc1cc(C(=O)NC(C)c2ccncc2)no1 (stereo not given)	0%	2	-0.7%	-7%
COc1ccccc1C(=O)NC(=O)Cn1nc(C)c([N+](=O)[O-])c1C	/	/	-1.7%	0%
CCOc1cc(/C=N/NC(=O)C(=O)NC)cc(Br)c1O	0%	-5	3.7%	?
Cc1nn(-c2ccccc2)c(C)c1NC(=O)COC(=O)[C@@H](NC(=O)c1ccccc1)C(C)C	/	/	4.8%	-2%
N#CCCn1cc(/C=C2\NC(=S)N(c3ccccc3)C2=O)c(-c2ccc(F)cc2)n1	7%	-9	?	?
O=C(COc1ccccc1[N+](=O)[O-])NCCCN1CCCC1=O	/	/	-0.2%	-9%
Cc1ccsc1/C=N/N1CCN(c2ccccc2)CC1	-36%	-3	-0.9%	16%
O=S(=O)(Nc1nccs1)c1ccc(NCc2cc(Br)cc(Br)c2O)cc1	-12%	-12	-4.6%	22%
CC(C)N(C(=O)COC(=O)c1ccc(Cl)nc1)C(C)C	0%	5	0.6%	-15%
Cc1ccc(NC(=O)C2CCN(c3ncnc4c3nc3n4CCCCC3)CC2)cc1Cl	-1%	/	0.4%	0%
O=C(Nc1ccc(F)cc1)NC1CCN(Cc2ccccc2)CC1	-1%	0	-1.8%	-9%
CC(=O)Nc1c(Cl)c(Cl)c2c(c1Cl)C(=O)c1cc(Cl)ccc1-2	/	/	-0.5%	2%
O=C(Nc1ccc(Cc2ccncc2)cc1)c1ccc(S(=O)(=O)N2CCOCC2)cc1	26%	-9	0.3%	-9%
CC(C)COc1ccc(C(=O)N/C(=C\c2cccc([N+](=O)[O-])c2)C(=O)O)cc1	-12%	-1	-1.6%	20%
O=C(N/N=C/c1c(Cl)cccc1Cl)C(=O)NC1CC1	1%	-10	0.2%	-1%
COC(c1ccc(Cl)cc1)(c1ccc(Cl)cc1)C(Oc1nc(C)cc(C)n1)C(=O)O (stereo not given)	1%	/	2.5%	23%
C=CCCN(Cc1ccccc1)S(=O)(=O)c1ccccc1Br	-2%	-2	3.7%	-9%
Nc1ccc(Cl)cc1/C(=N/O)c1ccccc1	-5%	-10	3.1%	13%
O=C(Nc1cccc(Cl)c1)N1CCSc2cc(Cl)ccc21	-5%	3	2.7%	11%
COC(=O)c1ccc(NC(=O)C(OC)c2ccccc2)cc1 (stereo not given)	-25%	-2	0.5%	-9%
C=CCNC(=S)Nc1ccc2nc(C)c(C)nc2c1	-29%	-24	-2.1%	-2%
O=C(O/N=C/c1cccc([N+](=O)[O-])c1)C1CC1	-5%	-4	-3.0%	-9%
Cc1ccc(S(=O)(=O)NCCC(=O)NNC(=O)C2COc3ccccc3O2)cc1 (stereo not given)	/	/	9.5%	-23%
O=C(NCc1ccc(Cl)cc1)NCC(F)(F)F	-1%	-10	-0.6%	-12%
Cc1ccc(S(=O)(=O)N2c3ccccc3NC(=O)C2CC(=O)Nc2ccccc2)cc1 (stereo not given)	-9%	5	3.2%	-19%
COc1ccc(N2C(=O)C3NN=C(C(=O)OCc4ccccc4)C3C2=O)cc1 (stereo not given)	0%	-2	7.6%	0%
COc1ccc(/C=C/C(=O)OCC(=O)Nc2ccc(Cl)cn2)cc1	4%	3	-0.9%	-2%
CCn1c(C)nc2cc(-c3nnc(-c4c(-c5ccccc5)noc4C)o3)ccc21	-7%	-11	2.2%	10%
O=C(CSc1nnc(-c2ccc(Cl)cc2Cl)n1C1CCCCC1)N1CCCC1	1%	6	5.8%	-22%
Cc1ccc(C(=O)Nc2cc3c(oc2=O)CCCC3=O)cc1	-39%	6	1.6%	12%
CCOC(=O)Cc1csc(NC(=O)CSc2nnnn2-c2ccc(C)cc2C)n1	-8%	-23	3.9%	-16%
Cc1c(C(C)NC(=O)c2cc(COc3cccc4cnccc34)on2)cnn1C (stereo not given)	?	/	0.3%	0%
Cc1onc(-c2ccccc2Cl)c1-c1nc(-c2ccncc2)no1	-11%	9	-0.7%	46%
O=C(NCc1cccnc1)c1ccc(Cn2c(=S)[nH]c3ccc(Br)cc3c2=O)cc1	-3%	4	-4.6%	0%
CNc1ccccc1C(C)(C)c1cc(C)[nH]n1	-1%	-2	6.9%	-13%
Cc1nc2ccccn2c1C(=O)NNC(=O)Nc1ccccc1	-2%	/	-0.5%	5%
Cc1ccc(C)c(NC(=O)CN(C)C(=O)C2CCN(S(=O)(=O)c3ccc4c(c3)OCCO4)CC2)c1	/	/	1.2%	-4%
CC(C)CCNC(=O)C(c1ccc(O)cc1)N(Cc1cccs1)C(=O)C1COc2ccccc2O1 (stereo not given)	30%	-6	0.6%	-2%
COc1ccc(N2CCN(C(=O)CSc3nnc(Cn4nnc5ccccc54)n3C)CC2)cc1	-2%	-8	-1.9%	-20%
Cn1nnnc1SCc1cccc(CSc2nnnn2C)n1	-1%	8	0.4%	6%
CC1CCCCC1NC(=O)CCn1c(=O)sc2ccccc21 (stereo not given)	-1%	/	?	?
COc1cc(-n2c(=O)c3ccccc3n(Cc3cc(=O)n4ccccc4n3)c2=O)cc(OC)c1OC	-9%	4	1.7%	-18%
O=C(CSc1nnc(-c2ccncc2)o1)NCc1ccc(Cl)cc1	-5%	3	-0.1%	0%
O=C(CCCOc1ccccc1)N1CCN(c2ccc(F)cc2)CC1	-43%	5	0.4%	-6%
Cc1ccc(N(C(=O)C2CCC(=O)N2)C2(C(=O)NC3CCCCC3)CCCCC2)cc1 (stereo not given)	-2%	-3	1.2%	0%
O=C(Cn1c(-c2ccccn2)nc2ccccc21)N/N=C/c1cccnc1	0%	-9	0.4%	7%

Next section.
SMILES	miR-21 reporter	GLA inh pH 4.5	Rango-impB inh	Rango release inh
CCSC(C)CC1CC(=O)CC(=O)C1 (stereo not given)	1%	7	-1.7%	7%
CNC(=O)c1sccc1Oc1ccc(F)cc1[N+](=O)[O-]	11%	-2	-0.6%	-21%
COc1ccc(C(=O)NC(=O)NC2(C(Cl)(Cl)Cl)OCCO2)cc1	-58%	/	-0.7%	-19%
O=C(CN1CCC(Cc2ccccc2)CC1)NCCc1ccc(F)cc1	1%	-16	?	24%
Cc1ccc(NC(=O)c2ccc(S(=O)(=O)Nc3c(C)n(C)n(-c4ccccc4)c3=O)cc2)nc1	/	/	-0.3%	30%
Cc1cc(C)c(C#N)c(SCCN2CCOCC2)n1	-1%	-4	-0.9%	0%
CCOc1nc(NC2CCCCC2)nc(NC(C)(C)C)n1	-4%	-11	0.1%	19%
C/C(=N\NC(=O)c1c(Cl)c(C)nn1C)c1ccc(NC(=O)COc2ccc(Cl)cc2C)cc1	-2%	-15	-0.3%	-4%
Clc1ccc(Cn2nnc(-c3ccc(N4CCOCC4)cc3)n2)cc1	-2%	0	-3.2%	8%
CCOCc1nnc(NS(C)(=O)=O)s1	0%	11	6.3%	10%
O=C(c1cnc2sccn2c1=O)N1CCc2ccccc2C1	-21%	8	2.8%	-6%
Cc1c(C(=O)O)oc2ccc(S(=O)(=O)N3CCCCC3C(=O)O)cc12 (stereo not given)	-1%	3	-1.5%	-7%
CCOC(=O)c1[nH]c(C)c(C(=O)OCC(=O)N2CCc3ccccc32)c1C	-6%	6	-1.7%	15%
O=C(Nc1ccccc1N1CCCC1)c1cccnc1	-4%	9	-0.4%	2%
Cn1nc(C(C)(C)C)cc1C(=O)Nc1nc2c(s1)C(=O)CC(C)(C)C2	-19%	-3	?	-3%
COc1ccc(C(=S)N2CCOCC2)cc1OC(=O)c1ccccc1Cl	-2%	/	4.3%	-12%
CCO[C@@H]1OC(C(=O)O)=C[C@H](C2CCCCC2)[C@H]1CCCO	0%	2	2.5%	0%
Cc1noc(C)c1COC(=O)c1cccc(S(=O)(=O)N2CCOCC2)c1	/	/	0.2%	-3%
Cc1cc(Cl)c2cc3ccccc3cc2n1	-3%	9	0.0%	2%
CCC(=O)NNc1ncnc2ccccc12	-10%	0	-0.3%	-8%
Cc1ccsc1CNC(=O)c1c(-c2ccccc2)noc1C	-12%	-5	0.0%	7%
CCOC(=O)COc1ccc(C2CC(C)=NN2c2ccccc2)cc1 (stereo not given)	3%	-3	?	?
CCOc1ccccc1C(=O)N1CCC(C(=O)c2ccc(F)cc2)CC1	-1%	-5	13%	12%
O=C(O)C1=C(OCc2ccc(F)c(F)c2)C(=O)NCC1	0%	3	5.6%	2%
COC(=O)c1cc(N=Nc2sc(N)nc2C)cc(C(=O)OC)c1	18%	-3	-0.6%	2%
O=C(CSc1nc2ccsc2c(=O)n1CC1CCC(C(=O)O)CC1)c1ccc(F)cc1 (stereo not given)	-7%	0	0.4%	-3%
CCOC(=O)c1ccc(Cl)c(S(=O)(=O)N2CCCC2)c1	12%	2	6.9%	0%
CC1CCN(S(=O)(=O)c2cccc(C(=O)NCC3CCCO3)c2)CC1 (stereo not given)	-2%	/	-0.2%	-7%
CCCc1ccc(S(=O)(=O)N2CCN(C(C)C(=O)NCc3ccccc3)CC2)cc1 (stereo not given)	/	/	0.6%	9%
Cc1cccc(CS(=O)(=O)Cc2ccc(C(=O)O)o2)c1	-3%	-3	3.8%	11%
CC(Oc1ccccc1)C(=O)NC1CCN(Cc2ccccc2)CC1 (stereo not given)	-3%	2	-2.5%	15%
CS(=O)(=O)CCC(C(=O)n1nnc2ccccc21)N1C(=O)c2ccccc2C1=O (stereo not given)	-7%	11	2.7%	-12%
CN1CC(=O)N(CC(=O)Nc2ccc(SC(F)F)cc2)C1=O	-3%	2	-2.7%	3%

Arranged by the number under miR-21 reporter (high to low): some entries from above
SMILES	miR-21 reporter	GLA inh pH 4.5	Rango-impB inh	Rango release inh
CCOC(=O)COc1ccc(C2CC(C)=NN2c2ccccc2)cc1 (stereo not given)	3%	-3	?	?
CCO[C@@H]1OC(C(=O)O)=C[C@H](C2CCCCC2)[C@H]1CCCO	0%	2	2.5%	0%
CC1CCN(S(=O)(=O)c2cccc(C(=O)NCC3CCCO3)c2)CC1 (stereo not given)	-2%	/	-0.2%	-7%
O=C(CSc1nc2ccsc2c(=O)n1CC1CCC(C(=O)O)CC1)c1ccc(F)cc1 (stereo not given)	-7%	0	0.4%	-3%
CCC(=O)NNc1ncnc2ccccc12	-10%	0	-0.3%	-8%
